# PrP UTR inh – inhibition of PrP 5' UTR reporter expression; 340,000 tested, 0.35% active; inhibition, % (test concentration not listed); cell-based PrP 5' UTR mRNA reporter, plate reader; AID 488862, 2010;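 active = every replicate at 50% or more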;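 also: 0 = median of the neutral control wells; tested in H4 reporter cells; numbers are from one replicate; inactives centre near -14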
# Sa ugtP lethal – growth inhibition of ugtP-null S. aureus, primary screen, RN4220 ugtP deletion, OD600. AID 1259309, 2017. 330,000 tested, 0.54% active. 16 h; some inactives read as strong as hits. growth inhibition, % (no concentration beside the values);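 active = z-score under -3 and OD600 up to 0.15 on both plates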;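 also: plate controls were untreated wells for no effect and antibiotic for full effect; wells of about 80 µL received 100 nL stock; the first replicate is given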
# Mtb hypoxia inh – PubChem AID 1159583 | M. tuberculosis hypoxia-regulated fluorescent reporter, fluorescence | fluorescence inhibition, % (no concentration beside the values) | 300,000 tested, 0.1% active;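 active = 35 to 45% if threefold the growth effect, above 45% if 1.5-fold the growth effect; inactive = the rest, general growth blockers included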;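 also: wells of about 50 µL received 100 nL stock; 0% = vehicle wells and 100% = reference inhibitor wells; whole bacteria with a GFP reporter of the hypoxia response; strong numbers were not always called active; many hits fall short of the cut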
# RN4220 kill – growth inhibition of S. aureus RN4220, primary screen, OD600; inhibition, % (test concentration not listed); 16 h; AID 1259311, 2017; 330,000 tested, 0.33% active;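 active = z-score of -3 or lower and OD600 up to 0.18 on both plates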;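 also: plate controls were untreated cells for no effect and reference antibiotic for full effect; stock transfer was 100 nL into about 80 µL; one replicate is shown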
# BJeLR viability – MLPCN primary cell-based screen for lethality selective to Ras in HRASV12 cells | BJeLR (HRASV12) viability, CellTiter-Glo ATP luminescence, 48 h; reference of the scale not given here | inhibition, % (concentration not given with the values) | 300,000 tested, 0.17% active;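 active = replicate mean above 50%; inconclusive = above 50% but judged a plate artefact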;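 also: 50 nL library stock added to about 25 µL; numbers are from one replicate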
# Autofluor counter – flagged as autofluorescent in microsphere protease counterscreen | compound autofluorescence counterscreen, microsphere flow cytometry; hits give high values | 360,000 tested, 3.1% active | fluorescence intensity (no concentration beside the values);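 active = at least 3 SD above the mean of all compounds, about 16000 in these data; inconclusive = too few beads counted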;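 also: 100 nL of 1 mM stock went into each well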
# Mtb hypoxia inh growth – second read-out of Mtb hypoxia inh, no call of its own (marks repeat the call); growth inhibition, %; measured here: M. tuberculosis growth (absorbance);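 0% = vehicle and 100% = reference antibiotic; read after six days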
# Starred values were filed as active, the others as inactive; ? = inconclusive; . = no result given.
SMILES,PrP UTR inh,Sa ugtP lethal,Mtb hypoxia inh,Mtb hypoxia inh growth,RN4220 kill,BJeLR viability,Autofluor counter
CC(OC(=O)C1=COCCO1)C(=O)NC1CCCCC1C (configuration not stated),-30,8,-5,3,5.4,.,3595
O=C1CC(c2ccccc2)c2cccc(F)c21 (configuration not stated),-31,6,18,5,3.9,17,3688
O=C(O)c1cccnc1SC1CC(=O)N(Cc2ccccc2)C1=O (configuration not stated),-15,7,5,6,4.4,-7,4894
Cn1c(=O)n(C)c2cc(NS(=O)(=O)c3ccccc3[N+](=O)[O-])ccc21,-12,8,7,-18,9.2,3,.
COc1ccc(-c2nc(CS(=O)(=O)CC(=O)NCCCc3ccccc3)c(C)o2)cc1,-17,5,7,4,2.3,-2,5822
OCCC1CN(Cc2cccn2-c2nccs2)CCN1CCc1ccccc1 (configuration not stated),-33,5,-11,-7,5.7,-12,4419
COc1ccc(CNC(=O)c2cc(C)nc3ccccc23)cc1OC,-16,0,-11,-9,6.8,-2,4446
Cc1ccc(C(=O)CSc2nnc(-c3ccccc3N)n2C)cc1,-27,1,11,8,5.8,-6,3978
COc1ccc(/C=N/N=C2\CC3CCC2(C)C3(C)C)cc1O (configuration not stated),-20,.,.,.,.,3,3205
Oc1c(Br)cc(Br)cc1CNc1ccccn1,-9,4,12,1,-0.8,6,4912
COC(=O)C1=C(C)N(c2ccc(OC)cc2)C(C)=C(C(=O)OC)C1c1ccccc1,-11,0,5,4,0.8,2,?
Cc1cccc(-c2nnc(SCC(=O)Nc3nc4c(s3)CCCC4)n2C)c1,-23,6,.,.,5.5,-9,3481
Cc1cc(C)c2nc(N=C(N)NC(=O)c3ccccc3)nc(C)c2c1,.,-1,17,1,3.5,.,.
O=C(CSc1nnc(-c2ccccc2F)n1C1CC1)NCc1ccco1,-11,2,3,3,1.1,.,9266
CC(=O)N(Cc1c(C#N)c2ccccc2n1C)c1ccccc1,-6,-1,4,11,3.9,-7,3346
CCSC1=N/C(=C\c2cccnc2)C(=O)N1c1ccccc1,-16,0,2,-1,7.7,14,2460
COc1cnn(-c2cc(Oc3ccc(C)cc3)ncn2)c(=O)c1Cl,-10,6,-7,14,14,-4,2820
CC1(c2ccc(C#N)cc2)NC(=O)N(CC(=O)Nc2cc(S(=O)(=O)N3CCOCC3)ccc2Cl)C1=O (configuration not stated),-24,10,5,8,-1.8,-1,4714
CN(Cc1ccc(F)cc1)C(=O)c1cc(COc2ccc(F)cc2F)on1,-9,9,15,9,0.0,4,3176
O=C(CN(C(=O)CCC(=O)Nc1nccs1)c1cccc(F)c1)NCc1ccc2c(c1)OCO2,-10,7,2,-2,-1.5,-15,3069
CC1=CC(C)(C)N(C(=O)CSc2ncn[nH]2)c2ccccc21,-3,6,20,1,6.1,10,15371
COc1ccc(Br)cc1CN(C)CC(=O)Nc1cccc(S(=O)(=O)N2CCCC2)c1,-2,-11,-7,8,3.5,.,4025
COCCCN=C1NN=C(c2cc(C)n(Cc3ccco3)c2C)CS1,68*,-3,-9,-1,2.0,60*,2395
COC(=O)[C@@H](NC(=O)c1ccccc1)[C@@H](C)O,-15,.,.,.,.,-9,4117
O=C(CSc1nccc(=O)[nH]1)NC1CCCc2ccccc21 (configuration not stated),-19,10,3,-3,1.2,-3,4721
Cc1ccc(NC(=O)NNS(=O)(=O)c2ccc(Br)cc2)cc1,-6,0,.,.,10.0,-4,2091
CCSC1=NCCN1C(=O)c1ccc(S(=O)(=O)N(C)C)cc1,-12,9,10,4,4.6,-7,2214
CC(=O)c1ccc(NC(=O)CN2CCN(c3ccccc3)CC2)cc1,-16,11,18,4,0.1,-11,3617
CC(C)CCNC(=O)C(c1ccncc1)N(C(=O)Cn1nnc(-c2ccc(F)cc2)n1)c1ccccc1F (configuration not stated),-30,0,16,0,4.3,.,2123
Cc1ccc(Sc2ncccc2C(=O)NC2CCCCCC2)cc1C,-11,-5,-3,8,-1.0,3,2549
O=C(Nc1ccc2[nH]c(=O)[nH]c2c1)c1cccc([N+](=O)[O-])c1,5,2,8,2,1.2,5,4294
Cc1ccc2nsnc2c1S(=O)(=O)N1CCOCC1,-18,0,3,6,-1.4,5,22875*
CC(C)OC(=O)NS(=O)(=O)c1cccc([N+](=O)[O-])c1,-8,3,-7,3,1.5,-5,2132
COc1ccc(C2CC(=O)CC(=O)C2n2cncn2)cc1 (configuration not stated),-10,-1,6,12,2.0,1,21795*
CCCOc1ccc(/C(O)=C2/C(=O)C(=O)N(CCN(C)C)C2c2ccco2)cc1 (configuration not stated),-10,.,.,.,.,2,3043
O=S(=O)(c1ccc(Br)cc1)c1nc(-c2ccco2)oc1NCC1CCCO1 (configuration not stated),4,-1,-1,16,4.2,3,4209
COc1ccc(OC)c(S(=O)(=O)N2c3ccccc3CC2C)c1 (configuration not stated),-35,3,18,6,5.5,3,7436
COc1ccc(-c2ccc(Nc3ccc(C(=O)N4CCOCC4)cc3)nn2)cc1OC,-22,5,18,9,6.7,1,3078
O=C1C2C3C=CC(C4CC34)C2C(=O)N1/N=C/c1c[nH]c2ccccc12 (configuration not stated),-39,.,.,.,.,-4,4118
COc1ccc(C(=O)NN=CC(C)c2ccccc2)cc1OC (configuration not stated),.,-1,-5,8,-7.2,.,.
CCn1cc(C(=O)NCCc2ccc(Cl)cc2)c(=O)c2cc(S(=O)(=O)N(C)C)ccc21,3,12,-6,-11,2.2,10,2966
COc1cccc(C(=O)NN=c2oc3ccccc3cc2C(N)=O)c1,.,-2,17,5,4.2,.,.
COc1ccc(/C=C/C(=O)NCCN=C2NS(=O)(=O)c3ccccc32)cc1,-18,6,9,5,1.6,-3,4087
O=C(C1=C[C@@H](C2CCCCC2)C[C@@H](OCCCCO)O1)N1CCN(Cc2ccc3c(c2)OCO3)CC1,-16,.,.,.,.,-7,4015
Cc1ccc(-n2c(C)cc(C)c(C#N)c2=O)cc1,-2,7,3,0,0.8,5,3589
CCC(C(=O)OCC(=O)NC(=O)NC(C)(C)C)c1ccccc1 (configuration not stated),-30,3,-1,1,2.7,3,4119
COc1ccc2oc(C(=O)NCCc3ccccc3)c(C)c2c1,36,13,0,-3,5.7,6,4112
CCCN(CCC)Cc1c(C(=O)NN=Cc2ccco2)nnn1-c1nonc1N,.,4,16,3,2.8,.,.
O=C(CS(=O)(=O)c1c[nH]c2ccccc12)N1CCCCC1,-14,-9,2,-4,-3.0,0,4046
Cc1cc2c(nc1C)CCCN2CC(C)ON=C1C2CCn3c(=O)n(-c4ccccc4)c(=O)n3C2C(O)C2OC12 (configuration not stated),.,-1,15,14,6.6,.,.
CCC(=O)NC(=S)Nc1ccccc1C(F)(F)F,-13,14,.,.,1.1,0,2559
CC1CN(S(=O)(=O)c2ccc(C(=O)Nc3nccs3)cc2)CC(C)O1 (configuration not stated),-1,10,11,10,5.1,-4,3453
CC(C)N(C(=O)CN1C(=O)NC(c2ccccc2)(c2ccccc2)C1=O)C(C)C,-16,9,5,5,2.6,3,3710
CCOC(=O)c1c(C)nc(C)c(C(=O)OCC)c1-c1ccc(O)c(OC)c1,6,-1,13,7,3.8,-1,2041
CC(NC(=O)C1CC1)C(c1cccs1)N1CCOCC1 (configuration not stated),-9,4,4,-12,2.0,1,3449
CCCC1=C([O-])C2N=CC=CC2=[N+](c2ccccn2)C1=O (configuration not stated),23,9,12,13,5.3,-11,9852
Cc1ccsc1C(=O)OCC(=O)Nc1cccc(S(=O)(=O)N2CCOCC2)c1,3,0,1,-3,5.4,-1,2052
CN(Cc1cccnc1)C(=O)CNC(=O)COc1ccccc1,-13,1,-4,11,5.4,1,6519
Nc1nnc(-c2cccc(F)c2)s1,-23,8,15,4,3.6,-9,3936
CCOC(=O)c1ccccc1NC(=S)N1CCC(C)CC1,-8,22,-1,2,6.0,0,9727

# (continued)
SMILES,PrP UTR inh,Sa ugtP lethal,Mtb hypoxia inh,Mtb hypoxia inh growth,RN4220 kill,BJeLR viability,Autofluor counter
O=C1CSC(=S)N1N=Cc1ccc2c(c1)OCCO2,.,-1,13,17,1.3,.,.
CCn1c(C(=O)N2CCC(C(=O)NCc3cccs3)CC2)cc2sccc21,-1,8,4,7,-7.0,6,6134
CC1CCN(C(=O)CN(Cc2ccc(Cl)cc2)S(C)(=O)=O)CC1,-13,-4,-7,-2,2.2,7,3873
Cc1cc(C)c(S(=O)(=O)c2ccccc2)c(N2CCOCC2)n1,-86,-2,7,-1,3.2,-1,4323
CCOC(=O)c1c(-c2ccc(Cl)cc2)c(C#N)c(=O)n(N)c1N,-15,-18,.,.,6.1,7,2793
COc1cccc(-c2cc(C(F)(F)F)n3ncc(C(=O)N4CCc5ccccc5C4)c3n2)c1,-18,0,-1,1,0.9,.,4528
O=C(CSc1nccc(=O)[nH]1)NN(c1ccccc1)c1ccccc1,1,4,11,9,9.6,4,4667
COc1ccccc1CNC(=O)C1CSC2(C)CCC(=O)N12 (configuration not stated),-24,0,7,6,-0.2,.,4033
CCS(=O)(=O)c1nc(S(=O)(=O)c2ccc(C)cc2)c(N2CCC(O)CC2)s1,-5,13,3,-5,5.3,3,4079
CSc1cccc(CNC(=O)C2CCC(=O)N(CCc3ccccn3)C2)c1 (configuration not stated),-21,6,6,-19,2.3,-9,5902
CCOc1ccc(OCCCC(=O)N2CCN(S(=O)(=O)c3ccccc3C#N)CC2)cc1,-8,1,6,5,-0.9,.,2943
S=C(NCC1CCCO1)Nc1ccc(Cl)c(Cl)c1 (configuration not stated),-52,13,-1,-1,0.6,-3,2527
CC(=O)OCC(=O)Nc1ccccc1C,76*,7,-6,4,2.2,-2,4015

# As a short view, 19 of the compounds above:
SMILES,PrP UTR inh,Sa ugtP lethal,Mtb hypoxia inh,Mtb hypoxia inh growth,RN4220 kill,BJeLR viability,Autofluor counter
CC(NC(=O)C1CC1)C(c1cccs1)N1CCOCC1 (configuration not stated),-9,4,4,-12,2.0,1,3449
CCCC1=C([O-])C2N=CC=CC2=[N+](c2ccccn2)C1=O (configuration not stated),23,9,12,13,5.3,-11,9852
Cc1ccsc1C(=O)OCC(=O)Nc1cccc(S(=O)(=O)N2CCOCC2)c1,3,0,1,-3,5.4,-1,2052
CN(Cc1cccnc1)C(=O)CNC(=O)COc1ccccc1,-13,1,-4,11,5.4,1,6519
Nc1nnc(-c2cccc(F)c2)s1,-23,8,15,4,3.6,-9,3936
CCOC(=O)c1ccccc1NC(=S)N1CCC(C)CC1,-8,22,-1,2,6.0,0,9727
O=C1CSC(=S)N1N=Cc1ccc2c(c1)OCCO2,.,-1,13,17,1.3,.,.
CCn1c(C(=O)N2CCC(C(=O)NCc3cccs3)CC2)cc2sccc21,-1,8,4,7,-7.0,6,6134
CC1CCN(C(=O)CN(Cc2ccc(Cl)cc2)S(C)(=O)=O)CC1,-13,-4,-7,-2,2.2,7,3873
Cc1cc(C)c(S(=O)(=O)c2ccccc2)c(N2CCOCC2)n1,-86,-2,7,-1,3.2,-1,4323
CCOC(=O)c1c(-c2ccc(Cl)cc2)c(C#N)c(=O)n(N)c1N,-15,-18,.,.,6.1,7,2793
COc1cccc(-c2cc(C(F)(F)F)n3ncc(C(=O)N4CCc5ccccc5C4)c3n2)c1,-18,0,-1,1,0.9,.,4528
O=C(CSc1nccc(=O)[nH]1)NN(c1ccccc1)c1ccccc1,1,4,11,9,9.6,4,4667
COc1ccccc1CNC(=O)C1CSC2(C)CCC(=O)N12 (configuration not stated),-24,0,7,6,-0.2,.,4033
CCS(=O)(=O)c1nc(S(=O)(=O)c2ccc(C)cc2)c(N2CCC(O)CC2)s1,-5,13,3,-5,5.3,3,4079
CSc1cccc(CNC(=O)C2CCC(=O)N(CCc3ccccn3)C2)c1 (configuration not stated),-21,6,6,-19,2.3,-9,5902
CCOc1ccc(OCCCC(=O)N2CCN(S(=O)(=O)c3ccccc3C#N)CC2)cc1,-8,1,6,5,-0.9,.,2943
S=C(NCC1CCCO1)Nc1ccc(Cl)c(Cl)c1 (configuration not stated),-52,13,-1,-1,0.6,-3,2527
CC(=O)OCC(=O)Nc1ccccc1C,76*,7,-6,4,2.2,-2,4015

# Rows are unselected, and some 4.1% of all compounds hit somewhere here.
